From PubChem BioAssay
A1 apoptosis 2: compounds inhibiting A1, read as caspase activation; 24,000 tested, under 10 active; MEF A1-2A-BIM cells, caspase-Glo luminescence, 3 h; percent of clofoctol response, DMSO zero; AID 2465; caspase activation, % (no concentration beside the values); in the data active means caspase activation above about 5.9%;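 further: wells of about 30 µL received 50 nL stock; the first replicate is given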
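Material: A1-2A-BIM-expressing MEF cells. Buffer or medium: RPMI-1640 plus 10% FBS. Incubation: cells settled overnight, compound exposure 3 h at 37 °C, 5% CO2. Signal: Caspase-Glo 3/7 luminescence, 1 h at room temperature.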
* = called active by the depositor. An excerpt (hit frequency here may not be typical).

SMILES | A1 apoptosis 2
C[C@@H]1CCCCO[C@H](CN(C)C(=O)NC2CCCCC2)[C@H](C)CN([C@H](C)CO)C(=O)c2cc(NS(=O)(=O)c3ccc(Cl)cc3)ccc2O1 | -0.2
COc1ccccc1NC(=O)N(C)C[C@H]1OCc2cnnn2CCCC(=O)N([C@@H](C)CO)C[C@H]1C | 1.9
C[C@@H]1CN([C@H](C)CO)C(=O)c2cc(NS(C)(=O)=O)ccc2O[C@@H](C)CCCCO[C@H]1CN(C)C(=O)NC1CCCCC1 | -0.2
C[C@@H]1CN([C@@H](C)CO)C(=O)c2cc(NC(=O)Nc3ccc(C(F)(F)F)cc3)ccc2O[C@@H]1CN(C)S(=O)(=O)c1cccs1 | -1.0
COc1ccc(S(=O)(=O)N(C)C[C@@H]2Oc3ccc(NC(=O)c4ccncc4)cc3C(=O)N([C@@H](C)CO)C[C@H]2C)cc1 | -0.9
CNC[C@@H]1Oc2c(NS(=O)(=O)c3cccs3)cccc2C(=O)N([C@@H](C)CO)C[C@H]1C | -0.5
C[C@H](CO)N1C[C@H](C)[C@@H](CN(C)S(=O)(=O)c2ccc(-c3ccccc3)cc2)OCc2cn(nn2)CCCC1=O | 0.9
O=C1O[C@@H](c2ccccc2)[C@@H](c2ccccc2)N2[C@@H](c3ccccc3OCCO)[C@]3(C(=O)Nc4ccc(C#CC5(O)CCCCCC5)cc43)[C@@H](C(=O)N3CCCCCCC3)[C@H]12 | 0.0
C[C@@H]1CN([C@H](C)CO)C(=O)c2cccc(NS(C)(=O)=O)c2O[C@H]1CN(C)S(=O)(=O)c1ccccc1 | -0.7
CC(C)NC(=O)N(C)C[C@H]1OCCCC[C@@H](C)Oc2ccc(NS(=O)(=O)c3ccc(Cl)cc3)cc2C(=O)N([C@H](C)CO)C[C@@H]1C | 1.5
COc1ccc([Si](C)(C)[C@H]2[C@H](CCO)O[C@@]3(C(=O)N(Cc4ccccc4)c4ccc(NC(=O)[C@H](C)O)cc43)[C@@H]2C)cc1 | -0.4
Cc1noc(C)c1NC(=O)Nc1ccc2c(c1)CC(=O)N([C@H](C)CO)C[C@H](C)[C@@H](CN(C)C(=O)Nc1ccc3c(c1)OCO3)O2 | -0.5

SMILES | A1 apoptosis 2
COc1ccc(S(=O)(=O)Nc2ccc3c(c2)CC(=O)N([C@@H](C)CO)C[C@H](C)[C@@H](CN(C)Cc2ccc(C(=O)O)cc2)O3)cc1 | 1.0
C[C@@H]1CN([C@@H](C)CO)C(=O)Cc2cc(NC(=O)CCCCCC(=O)Nc3ccccc3N)ccc2O[C@@H]1CN(C)C(=O)Nc1ccccc1 | 0.0
Cc1noc(C)c1S(=O)(=O)N(C)C[C@H]1OCCCC[C@H](C)Oc2ccc(N(C)C)cc2C(=O)N([C@@H](C)CO)C[C@@H]1C | -1.6
C[C@H](CO)N1C[C@H](C)[C@H](CN(C)Cc2ccncc2)OCCCC[C@H](C)Oc2ccc(NS(=O)(=O)c3ccccc3)cc2C1=O | -0.5
C[C@H](CO)N1C[C@H](C)[C@@H](CN(C)C(=O)Nc2ccccc2)Oc2ccc(NC(=O)CCCCCC(=O)Nc3ccccc3N)cc2C1=O | -0.5
COc1ccc(CN(C)C[C@@H]2Oc3ccc(NC(=O)c4ccncc4)cc3C(=O)N([C@@H](C)CO)C[C@@H]2C)cc1 | -1.3
C[C@H](CO)N1C[C@H](C)[C@H](CN(C)Cc2ccc(C(=O)Nc3ccccc3N)cc2)Oc2ccc(NC(=O)Cc3cn(C)c4ccccc34)cc2C1=O | 0.0
C[C@@H]1CCCCO[C@@H](CN(C)Cc2ccccc2)[C@@H](C)CN([C@H](C)CO)C(=O)c2cc(NC(=O)C3CCCCC3)ccc2O1 | 0.1
COC(=O)[C@]1(Cc2ccccc2CN=[N+]=[N-])N=C(c2ccc(OCCCO)cc2)O[C@@H]1c1ccccc1N=[N+]=[N-] | -0.4
C[C@@H]1CCCCO[C@@H](CN(C)C(=O)C2CCCCC2)[C@@H](C)CN([C@H](C)CO)C(=O)c2cc(NC(=O)Nc3cccc4ccccc34)ccc2O1 | 0.2
C[C@H](CO)N1C[C@H](C)[C@@H](CN(C)C)Oc2ccc(NC(=O)Cn3cnnn3)cc2C1=O | 1.7
COc1ccc(S(=O)(=O)Nc2cccc3c2O[C@@H](CN(C)C)[C@H](C)CN([C@@H](C)CO)C3=O)cc1 | 0.3

SMILES | A1 apoptosis 2
C[C@@H]1CN([C@H](C)CO)C(=O)c2cc(NC(=O)Nc3ccc4c(c3)OCO4)ccc2O[C@@H]1CN(C)S(C)(=O)=O | 0.5
C[C@@H]1CN([C@@H](C)CO)C(=O)c2cc(NS(=O)(=O)c3cccs3)ccc2O[C@H]1CN(C)Cc1ccc(-c2ccccc2)cc1 | 0.5
COc1ccc(CN(C)C[C@@H]2Oc3ccc(NC(=O)Nc4c(C)noc4C)cc3CC(=O)N([C@H](C)CO)C[C@@H]2C)cc1 | 0.2
O=C(NCc1ccccc1)[C@@]1(CCS(=O)(=O)c2ccccc2)N=C(c2ccc(OCCCO)cc2)O[C@H]1c1ccccc1 | 0.5
COC(=O)CCCCCCC(=O)N/N=C/c1cccc(NC(=O)OC(C)(C)C)c1 | -0.6
C[C@@H]1CCCCO[C@@H](CN(C)C(=O)c2ccccc2)[C@H](C)CN([C@H](C)CO)C(=O)c2cc(NC(=O)Nc3ccc(F)cc3)ccc2O1 | 0.6
COc1ccc(CN(C)C[C@@H]2OCCCC[C@H](C)Oc3ccc(NC(=O)Nc4c(C)noc4C)cc3C(=O)N([C@H](C)CO)C[C@@H]2C)cc1 | 0.4
C[C@@H]1CN([C@H](C)CO)C(=O)c2cc(NC(=O)Cc3cn(C)c4ccccc34)ccc2O[C@@H]1CN(C)S(=O)(=O)c1ccc(F)cc1 | 1.2
CC(C)NC(=O)N(C)C[C@@H]1OCCCC[C@H](C)Oc2ccc(NC(=O)Nc3ccc(F)cc3)cc2C(=O)N([C@H](C)CO)C[C@@H]1C | -0.2
C[C@@H]1CN([C@H](C)CO)C(=O)Cc2cc(NS(=O)(=O)c3ccc(F)cc3)ccc2O[C@H]1CN(C)C(=O)NC1CCCCC1 | 0.6
C[C@@H]1CN([C@H](C)CO)C(=O)c2cc(NC(=O)Nc3ccc(C(F)(F)F)cc3)ccc2O[C@H]1CN(C)C(=O)Nc1ccc(F)cc1 | -0.9
Cc1noc(C)c1NC(=O)N(C)C[C@@H]1OCCCC[C@H](C)Oc2ccc(NS(=O)(=O)c3ccc(F)cc3)cc2C(=O)N([C@@H](C)CO)C[C@H]1C | 1.4

A draw from above in order of heavy-atom count, falling.
SMILES | A1 apoptosis 2
C[C@@H]1CN([C@H](C)CO)C(=O)c2cc(NC(=O)Cc3cn(C)c4ccccc34)ccc2O[C@@H]1CN(C)S(=O)(=O)c1ccc(F)cc1 | 1.2
O=C(NCc1ccccc1)[C@@]1(CCS(=O)(=O)c2ccccc2)N=C(c2ccc(OCCCO)cc2)O[C@H]1c1ccccc1 | 0.5
COC(=O)CCCCCCC(=O)N/N=C/c1cccc(NC(=O)OC(C)(C)C)c1 | -0.6

Other structures
SMILES | A1 apoptosis 2
COc1ccc(NC(=O)Nc2ccc3c(c2)C(=O)N([C@@H](C)CO)C[C@@H](C)[C@@H](CN(C)C(=O)Nc2ccc(F)cc2)OCCCC[C@@H](C)O3)cc1 | -1.2
Cc1ccc(S(=O)(=O)Nc2ccc3c(c2)CC(=O)N([C@@H](C)CO)C[C@H](C)[C@H](CN(C)CC2CCCCC2)O3)cc1 | -0.1
C[C@@H]1CN([C@H](C)CO)C(=O)c2cccc(N(C)C)c2O[C@H]1CN(C)C | 0.5
COC(=O)CCCCCCC(=O)NN=C1CCCC1 | 0.6
Cc1noc(C)c1NC(=O)Nc1ccc2c(c1)CC(=O)N([C@@H](C)CO)C[C@@H](C)[C@H](CN(C)C(=O)Nc1cccc3ccccc13)O2 | 0.5
C[C@@H]1CN([C@H](C)CO)C(=O)c2cccc(NC(=O)Nc3ccc4c(c3)OCO4)c2O[C@H]1CN(C)Cc1ccc(Oc2ccccc2)cc1 | -2.2
Cc1noc(C)c1S(=O)(=O)Nc1ccc2c(c1)C(=O)N([C@H](C)CO)C[C@H](C)[C@@H](CN(C)Cc1ccc(-c3ccccc3)cc1)O2 | -0.6
C[C@@H]1CN([C@@H](C)CO)C(=O)c2cccc(NS(=O)(=O)c3ccc(Cl)cc3)c2O[C@@H]1CN(C)Cc1ccc(Oc2ccccc2)cc1 | 0.1
CNC[C@@H]1Oc2ccc(NC(=O)Nc3cccc4ccccc34)cc2CC(=O)N([C@H](C)CO)C[C@H]1C | 0.1
C[C@H]1CN([C@@H](C)CO)C(=O)c2cc(NC(=O)Cc3ccccc3)ccc2O[C@H]1CN(C)S(=O)(=O)c1ccc(Cl)cc1 | 0.7
CCCN(C)C[C@@H]1Oc2ncc(/C=C/c3ccccc3)cc2C(=O)N([C@H](C)CO)C[C@@H]1C | 0.1
C[C@@H]1CN([C@@H](C)CO)C(=O)c2cccc(NC(=O)C3CC3)c2O[C@H]1CN(C)C(=O)Nc1ccc(F)cc1 | 0.7

SMILES | A1 apoptosis 2
COc1ccc(CN2C(C)C3C(C)=CC2C2C(=O)N(C)C(=O)C32)cc1 (configuration not stated) | 1.0
Cc1ccc(S(=O)(=O)N(C)C[C@H]2Oc3c(cccc3N(C)C)C(=O)N([C@H](C)CO)C[C@@H]2C)cc1 | -0.5
C[C@@H]1CN([C@H](C)CO)C(=O)c2cc(NS(=O)(=O)c3ccccc3)ccc2O[C@H]1CN(C)S(=O)(=O)c1ccc(Cl)cc1 | -0.6
C[C@@H]1CCCCO[C@H](CN(C)C(=O)c2ccccc2)[C@@H](C)CN([C@H](C)CO)C(=O)c2cc(NC(=O)Nc3ccc(F)cc3)ccc2O1 | -0.4
C[C@H](CO)N1C[C@H](C)[C@@H](CN(C)S(=O)(=O)c2cccs2)Oc2ccc(NC(=O)Nc3ccc(C(F)(F)F)cc3)cc2C1=O | 0.3
Cc1ccc(S(=O)(=O)Nc2cccc3c2O[C@H](CN(C)C(=O)Nc2c(C)noc2C)[C@@H](C)CN([C@H](C)CO)C3=O)cc1 | -0.2
CC(C)NC(=O)N(C)C[C@@H]1Oc2ccc(NS(=O)(=O)c3ccc(F)cc3)cc2C(=O)N([C@@H](C)CO)C[C@H]1C | 0.7
C[C@H]1CN([C@@H](C)CO)C(=O)c2cc(NC(=O)NC3CCCCC3)ccc2O[C@@H]1CN(C)S(=O)(=O)c1cn(C)cn1 | -0.8
CNC[C@H]1OCCCC[C@H](C)Oc2ccc(NS(=O)(=O)c3c(C)noc3C)cc2C(=O)N([C@H](C)CO)C[C@H]1C | -0.7
C[C@H]1CN([C@@H](C)CO)C(=O)c2cccc(NS(=O)(=O)c3ccc(Cl)cc3)c2O[C@@H]1CN(C)C(=O)Nc1ccc2c(c1)OCO2 | -0.7
C#CCOc1ccc(/C=N/NC(=O)c2cccc(C(=O)NO)c2)cc1 | -7.8
COc1ccc(NC(=O)Nc2cccc3c2O[C@@H](CN(C)C(=O)Nc2ccc(F)cc2)[C@H](C)CN([C@@H](C)CO)C3=O)cc1 | 1.4

Among those listed so far, these contain a Cl atom:
SMILES | A1 apoptosis 2
C[C@@H]1CCCCO[C@H](CN(C)C(=O)NC2CCCCC2)[C@H](C)CN([C@H](C)CO)C(=O)c2cc(NS(=O)(=O)c3ccc(Cl)cc3)ccc2O1 | -0.2
CC(C)NC(=O)N(C)C[C@H]1OCCCC[C@@H](C)Oc2ccc(NS(=O)(=O)c3ccc(Cl)cc3)cc2C(=O)N([C@H](C)CO)C[C@@H]1C | 1.5
C[C@@H]1CN([C@@H](C)CO)C(=O)c2cccc(NS(=O)(=O)c3ccc(Cl)cc3)c2O[C@@H]1CN(C)Cc1ccc(Oc2ccccc2)cc1 | 0.1
C[C@H]1CN([C@@H](C)CO)C(=O)c2cc(NC(=O)Cc3ccccc3)ccc2O[C@H]1CN(C)S(=O)(=O)c1ccc(Cl)cc1 | 0.7
C[C@@H]1CN([C@H](C)CO)C(=O)c2cc(NS(=O)(=O)c3ccccc3)ccc2O[C@H]1CN(C)S(=O)(=O)c1ccc(Cl)cc1 | -0.6
C[C@H]1CN([C@@H](C)CO)C(=O)c2cccc(NS(=O)(=O)c3ccc(Cl)cc3)c2O[C@@H]1CN(C)C(=O)Nc1ccc2c(c1)OCO2 | -0.7

Other results.
SMILES | A1 apoptosis 2
C[C@H](CO)N1C[C@H](C)[C@H](CN(C)C(=O)Nc2ccc(C(F)(F)F)cc2)Oc2ccc(NC(=O)Cc3ccccc3)cc2C1=O | -0.7
COc1ccc(S(=O)(=O)Nc2ccc3c(c2)C(=O)N([C@@H](C)CO)C[C@@H](C)[C@@H](CN(C)C(=O)Nc2cccc4ccccc24)OCCCC[C@H](C)O3)cc1 | -1.9
C[C@H]1CN([C@@H](C)CO)C(=O)Cc2cc(NC(=O)Cc3cn(C)c4ccccc34)ccc2O[C@H]1CN(C)C(=O)NC1CCCCC1 | 0.8
C[C@H](CO)N1C[C@H](C)[C@H](CN(C)C(=O)Nc2ccc(N3CCN(C)CC3)cc2)OCc2cnnn2CCCC1=O | 0.4
Cc1ccc(S(=O)(=O)N(C)C[C@@H]2Oc3ccc(NC(=O)Cn4cnnn4)cc3C(=O)N([C@@H](C)CO)C[C@H]2C)cc1 | -1.2
C[C@@H]1CN([C@@H](C)CO)C(=O)c2cc(NC(=O)c3ccccc3)ccc2O[C@@H](C)CCCCO[C@@H]1CN(C)C(=O)c1ccccc1 | -0.4
Cc1ccc(S(=O)(=O)Nc2ccc3c(c2)C(=O)N([C@@H](C)CO)C[C@H](C)[C@@H](CN(C)S(=O)(=O)c2ccc(Cl)cc2)OCCCC[C@H](C)O3)cc1 | -1.1
C[C@@H]1CCCCO[C@H](CN(C)S(=O)(=O)c2ccc(Cl)cc2)[C@@H](C)CN([C@@H](C)CO)C(=O)c2cc(NS(=O)(=O)c3cccs3)ccc2O1 | -0.7
C[C@H](CO)N1C[C@H](C)[C@@H](CN(C)C)OCCCC[C@H](C)Oc2ccc(NC(=O)Nc3ccc4c(c3)OCO4)cc2C1=O | -0.9
COC(=O)CCCCCCC(=O)N/N=C/c1ccccn1 | 2.2
C[C@@H]1CN([C@@H](C)CO)C(=O)c2cc(NS(=O)(=O)c3cn(C)cn3)ccc2O[C@@H](C)CCCCO[C@@H]1CN(C)S(=O)(=O)c1ccc(Cl)cc1 | 0.7
